HPGD block: inhibitors of human 15-hydroxyprostaglandin dehydrogenase (HPGD). purified HPGD, NADH fluorescence kinetic, PGE2 substrate. Potency, µM, inactives show at the top dose activity change, negative = inhibition, usual class: inhibitors. 150,000 compounds, 4.3% hits. AID 894; active = well fitted inhibition curve with a large enough effect (not every such curve was filed as active); inconclusive = small, poorly fitted or top-dose-only effect, or another doubt; inactive = no such curve, though single readings can be large or run the other way;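 further: top concentration of the series not given in the record; plate controls included wells without enzyme; inactives centre near -10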
Target sequence (P15428 whole entry, looked up): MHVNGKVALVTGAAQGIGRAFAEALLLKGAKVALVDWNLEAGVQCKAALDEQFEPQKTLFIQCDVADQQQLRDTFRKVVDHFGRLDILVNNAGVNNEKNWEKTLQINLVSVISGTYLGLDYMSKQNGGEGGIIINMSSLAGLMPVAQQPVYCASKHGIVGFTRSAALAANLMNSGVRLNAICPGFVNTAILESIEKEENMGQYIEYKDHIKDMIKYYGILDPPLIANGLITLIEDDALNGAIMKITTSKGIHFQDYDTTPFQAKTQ
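NADH formation kinetics: reaction with 30 uM PGE2 and 1 mM NAD+ (final), 20 nM enzyme, Tris-HCl pH 8 with Tween 20, after 15 min compound preincubation at room temperature. Fluorescence change, last versus first of five reads.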
Numbers without * were called inactive; ? = inconclusive; & = joins results of further samples. On the % scale 0 is the no-effect control and ±100 the full control effect; potency means the concentration at half of the fitted maximal effect. These rows are one share of the data; rates above refer to the full screens.

SMILES | HPGD block
CC1(C)C2CCC1(CS(=O)(=O)Nc1ccc(S(=O)(=O)NC3CCCCC3)cc1)C(=O)C2 (stereo unspecified) | -8.0%
S=C(NCCCN1CCOCC1)Nc1ccc(Cl)cc1 | -0.8%
CCOC(=O)COc1c(OC)cc(Cl)cc1C1Nc2ccccc2C(=O)N1c1cccc(C)c1 (stereo unspecified) | ?
O=C1CCCC2=C1C(c1ccccc1)C1=C(CCCC1=O)O2 | -2.3%
CCSc1nnc(NC(=O)CCNS(=O)(=O)c2cc(Br)cnc2N)s1 | -13.9%
COc1ccc2[nH]cc(CCNc3ccnc(-c4cccc(NS(C)(=O)=O)c4)n3)c2c1 | -21.2%
COCCN(CCOC)c1ncc(Cl)c(C(=O)c2c(C)cc3ccccn23)n1 | -5.2%
CCN1CCN(c2cc(C)c3cc(NC(=O)c4cncc(Br)c4)ccc3n2)CC1 | ?
c1ccc2c(N3CCCCC3)ncnc2c1 | -9.1%
Cc1nn(C)c(C)c1S(=O)(=O)N1CCC(C(=O)NC2CCCCCC2)CC1 | -5.8%
Cc1ccc(S(=O)(=O)N2CCCCC2)cc1NC(=O)CSc1ncnc2ccccc12 | -11.2%
CCOC(=O)/C(=N/Nc1ccc(C)cc1)S(=O)(=O)c1ccc(Cl)cc1 | -10.7%
CCN1CCN(Cc2cc(=O)oc3cc4c(cc23)CCC4)CC1 | -27.6%
COc1ccc(CNC(=O)CSc2nnnn2-c2ccccc2)cc1 | -10.4%
CCOC(=O)c1c(C#N)c(SCC(=O)Nc2ccc(OC)cc2)nc2c1CN(CC)CC2 | -14.4%
O=C(O)c1ccccc1NS(=O)(=O)c1cccc(C(F)(F)F)c1 | -7.4%&-7.8%
COc1ccc(CCNC(=O)c2nnn(-c3ccc4c(c3)OCCO4)c2N)cc1OC | -8.6%
COCCNC(=O)CN(CC1CCCO1)C(=O)CCC(=O)Nc1ccccn1 (stereo unspecified) | -2.0%
CCOc1cccc(-c2nnc3sc(COc4ccc(OC)cc4)nn23)c1 | -19.6%
Cc1ccc(S(=O)(=O)Cn2nnnc2CN(Cc2ccco2)CC2CCCO2)cc1 (stereo unspecified) | -0.5%
CCOc1cc(/C=C(\C#N)c2nc(-c3cccs3)c(NC(C)=O)s2)ccc1O | -0.6%
C/C(=C\C(=O)c1ccc(C)o1)Nc1ccc(C(=O)O)cc1C | -21.2%
COc1ccc(-c2cc(C(F)(F)F)n3nc(C(=O)NCCCn4ccnc4)cc3n2)cc1 | ?
Cc1ccc(C)c(Nc2ncnc(N)c2[N+](=O)[O-])c1 | -29.0%
CC(=O)NCC(=O)N[C@H](CCC(=O)O)C(=O)O | -8.0%
Cc1nc(NCc2ccccc2)c2nc(-c3ccccc3)n(CCCN3CCOCC3)c2n1 | ?
O=C1C(Cc2ccc(F)cc2)SC(=Nc2ccccc2)N1c1ccccc1 (stereo unspecified) | -2.2%
CN1C(=O)C2ON(c3ccccc3)C(c3cccs3)C2C1=O (stereo unspecified) | -4.0%
NCCc1ccc(O)c(O)c1 | 3.8%&-8.7%&12.4%&15.7%
Cc1cccc(N2CCN(Cc3cc(=O)n4ccsc4n3)CC2)c1C | 0.5%
O=C(Nc1ccccc1C(=O)N/N=C/c1ccco1)c1ccc(Cl)cc1 | -14.4%
NC(=NC1CCCCC1)c1ccc([N+](=O)[O-])cc1 | -10.4%
CCCS(=O)(=O)NCCc1cc2cc(C)c(C)cc2[nH]c1=O | -23.2%
CC(C)CN1C(=O)c2ccccc2C1(O)Cc1ccccc1 (stereo unspecified) | -16.4%
CCC(=O)Nc1ccc(C(=O)CSc2nnc(-c3ccc(O)cc3)n2CC2CCCO2)cc1OC (stereo unspecified) | -18.2%
N#Cc1ccc(CSc2nc(-c3cccs3)c3c(c2C(=O)O)CCCC3)cc1 | 17.8µM*
CC1CCc2nc(NC(=O)CSc3nc4ccccc4o3)sc2C1 (stereo unspecified) | -6.4%
O=C1C=C(c2ccccc2)C[C@H](c2cccs2)[C@H]1n1nnc([N+](=O)[O-])n1 | -19.7%
CCOc1ccccc1Nc1nnc(Cc2ccccc2Cl)c(=O)[nH]1 | -16.4%
O=C1CCCc2ccccc2N1Cc1c(Cl)cccc1Cl | -12.7%
CC1=NN(Cc2ccccc2)C(=O)/C1=C\c1ccc(N(C)C)cc1 | -6.0%
CNc1c([N+](=O)[O-])cnn1-c1ccc(C)cc1 | -22.5%
CCOc1cccc(NC(=O)CSc2nc(C)c3c(c2C#N)CCCC3)c1 | ?
CCOC(=O)C1CCCN(C2CC(=O)N(c3cccc(C)c3)C2=O)C1 (stereo unspecified) | -5.8%
Cc1noc(C)c1CSc1nnc2sc3ccccc3n12 | -12.0%

The list goes on; it opens with the 5 that closed the last part.
SMILES | HPGD block
CC1=NN(Cc2ccccc2)C(=O)/C1=C\c1ccc(N(C)C)cc1 | -6.0%
CNc1c([N+](=O)[O-])cnn1-c1ccc(C)cc1 | -22.5%
CCOc1cccc(NC(=O)CSc2nc(C)c3c(c2C#N)CCCC3)c1 | ?
CCOC(=O)C1CCCN(C2CC(=O)N(c3cccc(C)c3)C2=O)C1 (stereo unspecified) | -5.8%
Cc1noc(C)c1CSc1nnc2sc3ccccc3n12 | -12.0%
Cc1nn2cc(-c3ccc(-c4ccccc4)cc3)nc2s1 | -21.0%
O=[N+]([O-])c1ccc(OCc2cccc(COc3ccc([N+](=O)[O-])cc3)n2)cc1 | -0.1%
O=C(NC(=S)Nc1ccc(N2CCOCC2)c(Cl)c1)C(c1ccccc1)c1ccccc1 | -17.8%
CCCC1S/C(=N/N=C/c2ccc(OC)cc2)N(Cc2ccc(OC)cc2)C1=O (stereo unspecified) | -26.1%
O=C(Nc1nnc(C2CC2)s1)c1ccncc1 | -18.1%
COc1cc(/C=N/NC(=O)c2cccnc2)ccc1OC(=O)c1ccco1 | -3.1%
NC(=O)CC[C@@H]1NC(=O)[C@@H]2CCCN2C(=O)c2cc([N+](=O)[O-])cc(I)c2NCCCC[C@@H](C(=O)NC(CC(=O)O)C(N)=O)NC1=O (stereo partly specified) | -7.2%
Cc1ccc(C(=O)CSC2=C(C#N)C(c3ccco3)C3=C(CCCC3=O)N2)cc1 (stereo unspecified) | -15.7%
O=c1c2ccsc2ncn1Cc1ccc(Cl)cc1 | -5.9%
O=C(CCc1nc(-c2ccccc2)no1)N1CCCC1 | -26.4%
O=C(COc1ccc(Br)cc1Cl)NC(=S)N1CCc2ccccc21 | ?
COc1ccc(NS(=O)(=O)c2cccs2)c(OC)c1 | -4.6%
Nn1c(SCc2nc3ccccn3c2Br)nnc1-c1cccnc1 | -27.1%
Cc1[nH]c2c(Cl)cccc2c(=O)c1CN1CCCC1 | -20.8%
COc1ccccc1N(C)S(=O)(=O)c1ccc(C(=O)NC2=NCCS2)cc1 | 1.6%
COc1ccc(Br)cc1CN(C)C(C)C(=O)Nc1cc([N+](=O)[O-])ccc1OC (stereo unspecified) | -8.4%
CC(C)(C)NC(=O)CSc1nc2ccc(NC(=O)CSc3nnc(N)s3)cc2s1 | 31.6µM*
NC(=O)C1CCN(C(=O)c2ccc(NC3=NC4CS(=O)(=O)CC4S3)cc2)CC1 (stereo unspecified) | 1.6%
O=C1CCCN1CCCNCC(=O)N1c2ccccc2Sc2ccccc21 | 0.8%
CCn1[nH]c(=O)c(=Nc2c(C)n(C)n(-c3ccccc3)c2=O)cc1-c1ccc(Cl)cc1 | -5.5%
COc1ccc(CC(=O)NNC(=O)COc2ccc3ccccc3c2)cc1 | -4.1%
Clc1ccc(Nc2ccc(NCc3ccccc3)nn2)cc1 | 5.62µM*
CCn1c(SCc2nc3scc(-c4ccccc4)c3c(=O)[nH]2)nnc1-c1cccs1 | -18.0%
CCCOc1ccc(/C(O)=C2/C(=O)C(=O)N(CCCn3ccnc3)C2c2cccs2)cc1 (stereo unspecified) | -4.7%
Cc1ccc(NC(=O)COC(=O)Cc2csc(-c3cccc(F)c3)n2)cc1C | -15.9%
COc1ccc2c(C)cc(=O)oc2c1 | ?
Cn1c(SCC(=O)N2CCCCC2)nc2c([nH]c3ccccc32)c1=O | -20.2%
CCOc1ccc(-c2nc(-c3ccccc3)no2)cc1OCC | -11.9%
NC(=O)Nc1cccc2ccccc12 | -14.8%
Cc1cc(C)n2cc(CSc3nc4cc(Cl)ccc4o3)nc2n1 | ?

Some of these compounds in order of molecular weight, smallest number first.
SMILES | HPGD block
NC(=O)Nc1cccc2ccccc12 | -14.8%
Cc1cc(C)n2cc(CSc3nc4cc(Cl)ccc4o3)nc2n1 | ?
O=C1CCCN1CCCNCC(=O)N1c2ccccc2Sc2ccccc21 | 0.8%

Additional structures.
SMILES | HPGD block
Cc1ccc(S(=O)(=O)NCC(=O)OC2CCOC2=O)cc1 (stereo unspecified) | -9.2%
CC(C)(C)/C(O)=C(/C#N)c1nc2ccccc2[nH]1 | -18.4%
Brc1ccc(-c2csc3ncnc(-n4nnc5ccccc54)c23)cc1 | ?
CC(C)N(Cc1ccccc1)C(=O)COC(=O)c1ccc2c(c1)OCCO2 | -11.7%
COCCCC/C(=N\OCCN)c1ccc(C(F)(F)F)cc1 | -2.8%&-18.5%
CC1CN(c2oc(COc3ccc(Cl)cc3Cl)nc2C#N)CC(C)O1 (stereo unspecified) | ?
CCOC(=O)C(Cc1ccc(NC(=O)/C(=C\c2ccccc2)NC(=O)c2ccccc2)cc1)N1C(=O)c2ccccc2C1=O (stereo unspecified) | -6.7%
COC(=O)c1nn(Cc2ccccc2)c(=O)c2ccccc12 | -9.5%
CC(C)CNC(=O)NC(=O)COC(=O)c1cc(F)cc(F)c1 | -7.1%
Cc1ccc(C(=O)CSc2ncnc3sc4c(c23)CCC(C)C4)cc1 (stereo unspecified) | -12.8%
O=C(CN1CCN(Cc2ccc(Cl)cc2)C1=O)NCCCN1CCN(c2ccc(F)cc2)CC1 | -5.8%
Cc1nnc(NCc2ccco2)s1 | -3.9%
CCOc1cc(CNCCN(C)C)c(Cl)cc1OCC(=O)NCCc1ccccc1 | 1.0%
Cc1ccc(-n2c(=O)[nH]cc(C(=O)Nc3ccc4c(c3)OCCO4)c2=O)cc1C | -9.6%
Fc1ccc(N/N=C2/CC(c3ccccc3)Oc3ccccc32)c(F)c1 (stereo unspecified) | -29.0%
Cc1cccc(NC(=O)NNS(=O)(=O)c2ccc(F)cc2)c1 | -2.3%
O=C(CN(C(=O)CCC(=O)Nc1nccs1)c1ccccc1F)NCC1CCCO1 (stereo unspecified) | -0.7%
CC1CCN(c2ccc(C(=O)NCc3cccs3)cn2)CC1 | ?
Cc1ccc(P(=Nc2ccccc2)(N2CCOCC2)N2CCOCC2)o1 | -0.3%
COC(=O)c1oc2ccc(Br)cc2c1-n1cccc1 | -12.8%
O=c1cc(CSc2nnc(-c3cccnc3)n2-c2ccccc2F)nc2sccn12 | -6.2%
O=C(NCCCN1CCOCC1)C(=O)NCC1CCCO1 (stereo unspecified) | -2.7%
Cc1ccc(OCc2nnc(SCc3cc(=O)[nH]c4ccccc34)n2-c2ccccc2)cc1 | 11.2µM*
Cc1cc2c(n1-c1ccc(Cl)cc1)CC(C)(C)CC2=O | -15.4%
Cc1ccccc1NC(=O)Cc1nnc(SCC(=O)N2CCN(c3ccccc3)CC2)n1C | -4.4%
O=C(CN1C(=O)C2C3C=CC(C3)C2C1=O)Nc1cccc(S(=O)(=O)N2CCCC2)c1 (stereo unspecified) | -3.7%
Cc1ccc2cccc(Oc3ncnc4scc(-c5ccc(Cl)cc5)c34)c2n1 | -7.7%
CCOC(=O)Cn1c(=O)oc2cc(S(=O)(=O)Nc3ccc(F)cc3)ccc21 | -14.4%
COc1ccc(OC)c2[nH]c(=O)c(CCNC(=O)c3ccc(S(=O)(=O)N4CCCC4)cc3)cc12 | -2.4%
COc1ccc(NC(=S)N2CCC(C(=O)N3CCCCCC3)CC2)cc1 | -17.6%
Cc1ccc2[nH]c(=O)c(CN(Cc3cccs3)C(=S)NCc3ccco3)cc2c1 | -23.6%
N#Cc1sc2nc(-c3cccs3)cc(-c3ccc(Cl)cc3)c2c1N | -27.6%
COC(=O)C1CCN(S(=O)(=O)Cc2ccccc2)CC1 | 22.4µM*
CCc1ccc(NS(=O)(=O)c2ccc(Cl)cc2OC)cc1 | -9.8%
COc1ccc(NC(=O)CCN2C(=O)C3C4CCC(C4)C3C2=O)cc1 (stereo unspecified) | -8.6%
CN(C)S(=O)(=O)c1ccc(Nc2ccc(O)c3c2C(=O)c2c([N+](=O)[O-])ccc(O)c2C3=O)cc1 | -8.3%
COC(=O)C1=C(C)NC(C)=C(C(=O)OC)C1c1ccc(OC(=O)c2oc3ccccc3c2C)c(OC)c1 | ?
O=c1oc2ccccc2c(Nc2cccc3ccccc23)c1[N+](=O)[O-] | -19.6%
CCCOc1ccc(/C=N/Nc2cccc([N+](=O)[O-])c2)c(O)c1 | -16.6%
CCOC(=O)c1sc(NC(=O)c2cccc(S(=O)(=O)N3CCN(C)CC3)c2)cc1C | 25.1µM*
Cc1cnc(C(=O)OCC(=O)Nc2cc(S(=O)(=O)N3CCCCC3)ccc2Cl)cn1 | -7.5%
O=C(Nc1ccccc1-c1ccccc1NC(=O)c1ccco1)c1ccco1 | -2.4%
Oc1ccc2ccccc2c1C=Nc1cc(C(F)(F)F)ccc1N1CCCC1 | -19.4%
Cc1n[nH]c(=O)nc1N1CCN(c2ccccc2)CC1 | -10.4%
Cc1nc2c(Br)cc(Br)cc2cc1O | ?

3 entries already listed, ordered by the number in HPGD block, high to low:
SMILES | HPGD block
O=C(Nc1ccccc1-c1ccccc1NC(=O)c1ccco1)c1ccco1 | -2.4%
Cc1cnc(C(=O)OCC(=O)Nc2cc(S(=O)(=O)N3CCCCC3)ccc2Cl)cn1 | -7.5%
O=c1oc2ccccc2c(Nc2cccc3ccccc23)c1[N+](=O)[O-] | -19.6%

Going on with the list.
SMILES | HPGD block
CCn1c2ccccc2c2cc(NC(=O)COc3ccc(OC)cc3)ccc21 | -10.8%
COc1ccccc1OCc1ccc(C(=O)NCC2CCCO2)o1 (stereo unspecified) | ?
c1ccc2[nH]c(NCCCN3CCOCC3)nc2c1 | -4.7%
O=C(O)C[C@H](Nc1ccccc1)C(=O)O | -9.5%
CC(C)CNC(=O)CCCc1c[nH]c2ccccc12 | 14.1µM*
